Assay outcomes (PubChem)
PKD1 inh: PKD1 (human) kinase inhibition; PKD1 kinase fluorescence polarization assay; hit rate 0.056% among 200,000; inhibition, %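 (about 10 µM by stock and volumes)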;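 active = inhibition of 50% or more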;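 also: controls were vehicle for no effect and a reference inhibitor for full effect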
Target sequence (Q15139 whole entry, looked up): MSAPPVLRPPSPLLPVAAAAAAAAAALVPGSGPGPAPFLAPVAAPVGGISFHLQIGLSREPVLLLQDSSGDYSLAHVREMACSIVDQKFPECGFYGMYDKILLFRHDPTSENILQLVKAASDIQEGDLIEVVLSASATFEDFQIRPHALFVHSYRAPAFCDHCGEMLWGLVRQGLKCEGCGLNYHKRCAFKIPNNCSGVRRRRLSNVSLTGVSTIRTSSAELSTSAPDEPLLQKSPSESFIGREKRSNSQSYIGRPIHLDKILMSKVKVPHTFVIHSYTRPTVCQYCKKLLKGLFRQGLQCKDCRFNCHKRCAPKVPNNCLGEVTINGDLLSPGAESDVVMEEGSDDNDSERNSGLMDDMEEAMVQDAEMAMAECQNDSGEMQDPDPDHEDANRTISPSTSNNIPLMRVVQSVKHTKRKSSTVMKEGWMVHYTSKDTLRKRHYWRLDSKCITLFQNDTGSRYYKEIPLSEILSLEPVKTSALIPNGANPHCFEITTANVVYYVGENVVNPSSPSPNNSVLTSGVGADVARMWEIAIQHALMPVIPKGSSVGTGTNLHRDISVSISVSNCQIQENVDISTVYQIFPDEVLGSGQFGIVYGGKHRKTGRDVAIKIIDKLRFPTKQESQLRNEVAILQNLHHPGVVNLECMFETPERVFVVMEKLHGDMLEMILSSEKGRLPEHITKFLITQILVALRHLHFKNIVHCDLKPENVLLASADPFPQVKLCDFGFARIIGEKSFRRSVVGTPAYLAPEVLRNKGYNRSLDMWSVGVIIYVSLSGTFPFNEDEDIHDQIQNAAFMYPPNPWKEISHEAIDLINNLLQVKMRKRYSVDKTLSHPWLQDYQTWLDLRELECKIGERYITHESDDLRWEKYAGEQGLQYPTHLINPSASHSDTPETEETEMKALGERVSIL
INS promoter inh: TRM-6 insulin promoter activity inhibition; TRM-6 cells (human fetal islet line), insulin promoter-eGFP reporter, imaging; reporter expression induced with tamoxifen; hit rate 0.9% among 130,000; AID 1273; inhibition, % at 2 µM;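 active = inhibition above the mean plus 3 SD, with well images judged a real hit on visual review, cut at about 60% in these data, passing the limit was not always enough; inconclusive = inhibition over the cutoff but images rejected on review; inactive = inhibition not above the cutoff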
GALR2 agonist: activates the human galanin receptor 2; O43603; hit rate 0.48% among 140,000; GALR2-expressing cells, agonist activation read-out; AID 803; activation, %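 (tested at 5 µM)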;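 active = above mean plus 3 SD of all compounds, about 5% in these data, not always enough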;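 also: 0% = vehicle buffer wells and 100% = reference agonist at full effect; tested in CHO reporter cells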
HSV replic up: increases HSV replication in cells. HSV replication augmentation in cells, fold increase. hit rate 0.005% among 220,000. maximum fold increase;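 active = peak rise of 1.5-fold or more in the series; inconclusive = self-fluorescent or not available for retest; tested in PC3 cells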;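 also: first round at 10 µM; read as green reporter fluorescence; hits show the peak of a series up to 25 µM; 1 = signal of infected wells without compound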
RGS16-Gao HTS: regulators of human RGS16-Galphao interaction; O15492+P09471; bead-based flow cytometry RGS16-Galphao binding, fluorescence; actives lie on both sides; binding response (% of control), % at 10 µM; hit rate 0.38% among 220,000;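 active = below 25% or above 175%, edge rows of some plates excepted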;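 also: Galphao activated by GDP with aluminum fluoride before binding; 100% = wells without compound and 0% = beads without RGS; some results beyond the cut were filed as inactive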
INS promoter inh cell count: also measured in INS promoter inh; calls as there; normalized cell count, %; measured here: cell count, toxicity; reference of the scale not given here;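 cells exposed to compound for 48 h; stained nuclei by imaging scaled within each plate; lower means fewer cells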
HSV replic up primary fold: recorded beside HSV replic up, whose call it bears; fold increase; compound at 10 µM; measured here: primary screen fold increase 10 uM; tested in PC3 cells;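 GFP signal in the first replicate; 1 = infected wells without compound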
* hit, by the source's call; i = inactive; ? = inconclusive; nt = not tested or not shown.

SMILES	PKD1 inh	INS promoter inh	INS promoter inh cell count	GALR2 agonist	HSV replic up	HSV replic up primary fold	RGS16-Gao HTS
O=C(COC(=O)c1c[nH]c(=O)[nH]c1=O)Nc1ccccc1F	4	nt	nt	nt	i	1.1	104
COc1ccccc1Nc1nc2ccccc2n1C	-11	nt	nt	-2.0	i	0.92	114
Cn1nnnc1Sc1c(Cl)cccc1[N+](=O)[O-]	-10	-20	115	-0.5	i	0.88	115
Cc1nonc1C(=O)N/N=C/c1ccc(O)cc1	2	8	110	0.5	i	0.96	106
CCOC(=O)Cc1[nH]nc2c1C(c1cc(OC)ccc1OC)C(C#N)=C(N)O2 (stereo not given)	9	nt	nt	-2.0	i	0.92	102
Cc1ccc(C(=O)O)cc1NC(=S)NC(=O)c1ccc([N+](=O)[O-])c(C)c1	-5	nt	nt	nt	i	0.89	104
COC(=O)C(C(=O)OC)C(C[N+](=O)[O-])c1ccc(O)c(OC)c1 (stereo not given)	7	0	107	-0.8	i	0.85	109
COc1ccc(Cn2c(SCC#N)nc3ccc(N4CCOCC4)cc3c2=O)cc1	-2	44	87	nt	i	0.93	91
COc1ccc(-c2cc(C(=O)N3CCN(c4ccccc4)CC3)c3ccccc3n2)cc1OC	-4	14	148	-1.3	i	0.81	99
N#Cc1cc(C#N)c(N2CCN(c3ccccn3)CC2)nc1N	1	-33	60	-0.2	i	0.85	97
O=C(Cn1c(CO)nc2ccccc21)Nc1cc(C(F)(F)F)ccc1N1CCOCC1	-1	-107	146	-1.6	i	1	104
Cn1c(=O)c2c(nc(NCc3ccco3)n2Cc2ccccc2Cl)n(C)c1=O	-9	21	156	-1.6	i	0.95	106
Cc1ccc2nc(SCCCCOc3ccccc3)[nH]c2c1	2	-3	139	-2.0	i	0.86	104
c1cncc(C(c2nnnn2C2CCCC2)N2CCN(Cc3ccc4c(c3)OCO4)CC2)c1 (stereo not given)	0	-119	120	-0.7	i	0.93	105
CCN1CCN(c2oc(-c3ccc(OC)cc3)nc2C#N)CC1	3	31	129	-2.6	i	1	nt
CC(NS(=O)(=O)c1ccc(Br)cc1)C(c1cccs1)N1CCN(C)CC1 (stereo not given)	-4	-57	57	-0.9	i	0.94	104
CCN(CC)C(=O)CSc1nc2ccccc2n1CC(=O)N1CCN(c2ccccc2OC)CC1	-5	0	117	-0.6	i	0.95	99
CCOC(=O)C1=C(C)NC(C)=C(C(=O)OCC)C1c1cccc(C)n1	nt	nt	nt	nt	i	0.97	105
O=C(COc1ccc(Cl)cc1Cl)NN1C(=O)C2C3C=CC([C@@H]2C1=O)C31CC1 (stereo not given in full)	nt	nt	nt	nt	i	0.98	98
CCOC(=O)c1ccc(NC(=O)[C@@H](NC(N)=O)C(C)C)cc1	nt	nt	nt	nt	i	0.92	103
COc1ccc(S(=O)(=O)NCCC(C)C)cc1C	7	nt	nt	-0.6	i	1.2	99
O=C(COC(=O)c1ccccc1C(=O)c1ccccc1)c1ccco1	-12	26	73	-0.9	i	0.89	96
O=C(CN(Cc1ccc(F)cc1)C(=O)C1CSC(=O)C1)NC1CCCCC1 (stereo not given)	14	-23	86	-0.7	i	1	100
CC(=O)NC1C(=O)N=C(SC(C)C(=O)Nc2cccc(Cl)c2)NC1=O (stereo not given)	2	nt	nt	nt	i	0.83	100
c1ccc2oc(-c3csc(N4CCOCC4)n3)cc2c1	0	-58	126	nt	i	0.94	103
CCOC(=O)N1CCN(C(=O)Nc2ccc(Cl)cc2Cl)CC1	-5	-29	95	-2.8	i	1.1	107
Cc1cc(OCC(=O)O/N=C(\N)c2ccccc2)ccc1Cl	1	17	166	-0.4	i	1	102
CCC(C)N=Cc1c(Nc2ccccc2)nc2c(C)cccn2c1=O (stereo not given)	nt	nt	nt	nt	i	0.68	98
CC1(C)Cc2cccc(C(=O)Nc3ccc(F)cc3F)c2O1	nt	nt	nt	nt	i	0.97	100
CCCOc1cccc(C(=O)Nc2ccc(Br)cc2F)c1	-10	-50	90	0.6	i	0.98	108
O=C(Cn1ncc2c1-c1ccccc1OC2)N1CCN(c2ccccn2)CC1	-13	nt	nt	0.6	i	0.86	113
CCOC(=O)N1CCN(C(=O)c2cccc(F)c2)CC1	4	21	75	nt	i	0.85	100
CC1=NN(c2ccc(Br)cc2)C(=O)/C1=C/c1cccs1	-6	nt	nt	-0.9	i	1	104
CCOC(=O)C(C)Sc1snnc1C (stereo not given)	-5	11	108	-2.5	i	0.84	nt
CCOc1cc(/C=C/C(=O)O)ccc1OCc1ccccc1	3	-9	95	nt	i	0.88	98
CCOC(=O)Cc1c[nH]c(=S)[nH]c1=O	nt	nt	nt	nt	i	1.2	94
Cc1ccc(S(=O)(=O)c2cnc(-c3ccccc3)nc2N2CCCCC2)cc1	-3	nt	nt	nt	i	0.99	104
C=CCn1c(SCC(=O)Nc2sc3c(c2C#N)CCC3)nnc1C1COc2ccccc2O1 (stereo not given)	-7	nt	nt	-1.8	i	0.9	98
Cc1cccc(C(=O)NCc2nnc3c4ccccc4c(-c4ccccc4)nn23)c1	2	2	51	0.3	i	1	102
CN1c2ccsc2/C(=N/NC(=O)c2c(F)cccc2F)CS1(=O)=O	5	-10	47	-2.2	i	0.87	106
Cc1scc(C(=O)NNC(=S)NCC(C)C)c1C	-13	59	120	0.3	i	0.94	107
N#C/C(=C\c1ccc(Sc2nc3ccccc3[nH]2)o1)c1ccccc1	-6	50	201	-2.3	i	1.1	91
CCN(CC)C(=O)CSc1nnc2cc(C)c3ccccc3n12	-4	-38	73	nt	i	0.92	104
O=C(CN1C(=O)C2C3C=CC(C3)C2C1=O)OCC(=O)c1ccccc1 (stereo not given)	0	15	110	-1.2	nt	nt	110
NC(=O)c1c(NC(=O)CN2C(=O)NC(Cc3ccccc3)C2=O)sc2c1CCC2 (stereo not given)	nt	nt	nt	nt	i	1.1	98
COc1ccccc1NC(=O)c1sc2ncn(Cc3ccc(C)cc3)c(=O)c2c1C	-2	-4	146	-2.1	i	0.79	102
N#C/C(=C(/O)c1ccc(C(=O)c2ccccc2)cc1)c1nc2ccccc2[nH]1	nt	nt	nt	nt	i	1.1	96
Cc1cc(=O)oc(C)c1C(=O)NCc1ccccc1	-5	-7	54	-1.2	i	1	99
O=C(Nc1cccnc1)C1CCN(S(=O)(=O)c2cccc3nonc23)CC1	-12	-4	109	-2.5	i	0.79	100
N#C/C(=C(/O)COC(=O)CSc1ccc2ccccc2c1)c1nc2ccccc2[nH]1	-5	nt	nt	-0.6	i	0.98	104

Next part.
SMILES	PKD1 inh	INS promoter inh	INS promoter inh cell count	GALR2 agonist	HSV replic up	HSV replic up primary fold	RGS16-Gao HTS
Cc1ccc(CSCC(=O)Nc2c(C)n(C)n(-c3ccccc3)c2=O)cc1	6	13	76	-0.8	i	1	105
CCOC(=O)N1CCC(NC(=O)c2cc3c(-c4cccc(OC)c4)nn(C)c3s2)CC1	-8	-17	93	-0.3	i	0.75	97
c1cncc(CNc2ncnc3sc4c(c23)CCC4)c1	1	nt	nt	nt	i	0.98	101
COc1ccc(/C=C/C(=O)NC(=S)N2CCSCC2)cc1	4	-57	43	nt	i	1	105
O=C(CCC(=O)c1ccc(F)cc1)Nc1cc(Cl)cc(Cl)c1	-8	nt	nt	-1.9	i	0.96	98
Cc1ccc(NC(=O)COC(=O)CCC(=O)c2cccs2)c(C)c1	-2	-15	102	nt	i	1	100
O=C(c1ccc(S(=O)(=O)N2CCCC2)cc1)N1CCCCCC1	nt	nt	nt	nt	i	0.86	83
Cc1ccccc1OCC(=O)OCC(=O)Nc1cc(C(F)(F)F)ccc1N1CCOCC1	-8	nt	nt	-0.2	i	1.3	93
CCC(=O)N(CC)C1=C(O)c2ccccc2C(=O)C1=O	1	nt	nt	-0.8	i	1.2	53
COC(=O)c1ccc(CNC(=O)COC(=O)Cc2ccsc2)cc1	-4	nt	nt	nt	i	0.9	102

Arranged by formula weight (lowest first): part of the list above.
SMILES	PKD1 inh	INS promoter inh	INS promoter inh cell count	GALR2 agonist	HSV replic up	HSV replic up primary fold	RGS16-Gao HTS
CCC(=O)N(CC)C1=C(O)c2ccccc2C(=O)C1=O	1	nt	nt	-0.8	i	1.2	53
c1cncc(CNc2ncnc3sc4c(c23)CCC4)c1	1	nt	nt	nt	i	0.98	101
COc1ccc(/C=C/C(=O)NC(=S)N2CCSCC2)cc1	4	-57	43	nt	i	1	105
O=C(c1ccc(S(=O)(=O)N2CCCC2)cc1)N1CCCCCC1	nt	nt	nt	nt	i	0.86	83
O=C(CCC(=O)c1ccc(F)cc1)Nc1cc(Cl)cc(Cl)c1	-8	nt	nt	-1.9	i	0.96	98
Cc1ccc(NC(=O)COC(=O)CCC(=O)c2cccs2)c(C)c1	-2	-15	102	nt	i	1	100
Cc1ccc(CSCC(=O)Nc2c(C)n(C)n(-c3ccccc3)c2=O)cc1	6	13	76	-0.8	i	1	105

Remaining list, next part.
SMILES	PKD1 inh	INS promoter inh	INS promoter inh cell count	GALR2 agonist	HSV replic up	HSV replic up primary fold	RGS16-Gao HTS
Cc1cc(Nc2nnnn2-c2ccccc2)n(-c2ccccc2)n1	-7	13	102	-2.1	i	0.94	101
COc1cc(=O)[nH]c(=O)n1C(=O)Cc1ccccc1	-4	-42	100	-0.6	i	1	98
CC(C)(C)NS(=O)(=O)c1ccc(CCC(=O)NCc2ccco2)cc1	-1	-74	98	-4.2	i	0.8	89
Cc1ccnc(NC(=O)Nc2cccc(F)c2)n1	2	nt	nt	nt	i	1.1	101
Cc1nc2ccc(F)cc2cc1C(=O)NCC1CCCO1 (stereo not given)	-8	-11	193	-0.7	i	0.99	100
COc1ccc(/C=C2\SC(=O)NC2=S)cc1OC	4	-9	71	-0.7	?	nt	166
CNC(=S)N1CCN(c2ccc([N+](=O)[O-])cc2)CC1	-2	17	135	-1.4	nt	nt	103
Cc1onc(-c2c(F)cccc2Cl)c1C(=O)Nc1nc2c(s1)CCCC2	-6	56	120	-1.6	i	1	101
O=C(Nc1ccc(-c2cn3ccsc3n2)cc1)c1ccc(F)c(S(=O)(=O)N2CCOCC2)c1	-2	nt	nt	-1.1	i	0.63	96
Cc1ccc(C)c(-n2c(-c3csc(C)c3)n[nH]c2=S)c1	-6	-1	93	-2.9	i	0.93	100
COc1ccc2cc3cc(C(=O)NC(C)C)oc3nc2c1	-5	6	103	-2.3	i	0.94	3
CC1(C(=O)NNC(=O)C2CCCCC2)CC1(Cl)Cl (stereo not given)	nt	nt	nt	nt	i	0.93	100
Cc1ccc(CN2CCN(/N=C/c3cc(Br)ccc3O)CC2)cc1	-10	nt	nt	-2.4	i	1	100
CC1(C)CC2(CC(c3ccccc3F)c3ccc(O)c(O)c3O2)NC(=S)N1 (stereo not given)	-2	nt	nt	nt	i	1.1	90
CCOc1ccc(CNC(=O)C2CC(=O)N(C3CCCC3)C2)cc1OC (stereo not given)	10	-3	111	-0.9	i	1	97
COc1ccc(CNC(=O)C(c2ccc(C)o2)N(Cc2cccs2)C(=O)Cc2cccs2)cc1 (stereo not given)	-7	23	147	-2.6	i	0.84	97
Cc1ccc2[nH]c(=O)c(CN(Cc3cccnc3)C(=S)NCCCN(C)C)cc2c1	1	nt	nt	nt	i	0.92	101
CCOc1ccc(-c2nnc3n2N=C(c2ccc(OC)cc2)CS3)cc1	1	nt	nt	-1.7	i	0.82	92
COC(=O)c1cn(C(=O)c2ccc(Cl)cc2)c2ccccc12	nt	nt	nt	nt	i	0.94	104
CCC1=Nc2ccccc2-c2nnc(SC)nc2O1	9	59	144	-1.2	i	0.96	113
Cc1ccc(NC(=O)C(C)Sc2nnc(-c3cccnc3)n2-c2ccccc2)cc1 (stereo not given)	2	nt	nt	-1.9	i	1.1	87
N/C(Cc1cccc2ccccc12)=N\OC(=O)Cc1cccs1	10	0	165	-0.3	i	1.1	85
O=C(NC1CCCCC1)C(c1ccc(F)cc1)N(Cc1ccco1)C(=O)CN1C(=O)c2ccccc2S1(=O)=O (stereo not given)	0	nt	nt	2.6	i	0.87	95
Nc1c(C(=O)NCCc2ccccc2)nnn1Cc1ccccc1	-18	nt	nt	-1.2	i	0.92	102
CC(=O)C(Sc1nccc(-c2cccs2)n1)C(C)=O	5	-9	145	nt	i	1	115
O=C(Nc1ccc2c(c1)OC1(CCCC1)O2)C1CC1	1	nt	nt	-1.0	i	0.87	96
CSc1ccccc1NC(=O)c1cc(C2CC2)on1	-11	nt	nt	-1.2	i	0.67	103
Cc1ccc(NC(=O)CSc2ccc(C(N)=O)cc2[N+](=O)[O-])cc1	-8	nt	nt	-0.8	nt	nt	103
Cc1ccc2c(c1)sc(C)[n+]2CCCS(=O)(=O)[O-]	-2	-33	92	nt	i	1.1	100
CCCn1c(SCC(=O)N2c3ccc(F)cc3CCC2C)nnc1-c1ccccn1 (stereo not given)	-2	-305	53	-0.4	i	0.83	78
